# NPYLR7 agonist – mosquito NPYLR7 agonism. HEK293T NPYLR7/Galpha15, GCaMP6s calcium fluorescence. activation, % at 10 µM. 270,000 compounds, 0.15% hits. AID 1259423; in the data active = activation above about 40%;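 note: 0% = vehicle and 100% = reference agonist at the receptor; some compounds past the cut are filed as inactive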
# NPYLR7 agonist max-min – second read-out of NPYLR7 agonist, no call of its own (marks repeat the call); activation, %; measured here: Max-Min RFU normalised activation; some inactives read as strong as hits;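 span of the calcium signal over five minutes; 0% = vehicle and 100% = native peptide agonist; compound fluorescence can raise it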
# Active calls of the source: *; & = joins results of further samples. Not all compounds are listed; rates above refer to the full screens.
Structure	NPYLR7 agonist	NPYLR7 agonist max-min
Cc1ccsc1C(Cn1cnc(-c2ccccc2)c1-c1cnn(C)c1)N(C)C (stereo not given)	4	4
Cc1ccc(Cc2nc(N3CCCN(C(=O)c4ccc5c(c4)OCO5)CC3)c3c(C)nn(-c4ccc(F)cc4)c3n2)cc1	-4	-3
CCCOC1Sc2nnc(C)n2N=C1c1ccccc1 (stereo not given)	-7	22
COc1cc(Nc2c(C(=O)OC(C)C)cnc3nc(C)ccc23)cc(OC)c1	-3	-5
Cn1ccn2ncc(C(=O)NCc3cccnc3N3CCCC(O)C3)c12 (stereo not given)	8	4
CCN(CC)C(=O)Oc1ccc2c(ccn2Cc2ccc(F)cc2)c1NC(=O)COCc1ccccc1	4	4
COc1ccccc1CNC(=O)c1cc(F)ccc1N1CCOCC1	15	10
Cc1ccc(S(=O)(=O)N2CCN(CC(=O)Nc3ccon3)CC2)cc1	17	9
CN(CC(=O)Nc1ccccc1C(F)(F)F)C(=O)/C=C/c1ccc2c(c1)OCCCO2	5	3
Cc1ccc(Cc2nc(N3CCCN(C(=O)c4ccccc4F)CC3)c3cnn(-c4ccccc4)c3n2)cc1	5	10
CCC(C)N(Cc1cccn1Cc1cccc(OC)c1)C(=O)CN(CCC(C)C)C(=O)COCc1ccccc1 (stereo not given)	-2	2
CCOc1ccc(-n2nnc(C(N)=O)c2N)cc1	-5	-6
O=C(O)C1CN(c2nc3c(c(C(F)(F)F)n2)CCCC3)CCN1 (stereo not given)	-1	-6
CC1/C=C/C=C/CC/C=C/C=C/C=C/C=CC(O[C@@H]2O[C@H](C)[C@@H](O)[C@H](N)[C@@H]2O)CC(O)C(C(=O)O)C(O)CC(=O)CC(O)C(O)CCC(O)CC(O)CC(O)CC(=O)OC(C)C(C)C1O (stereo not given in full)	-4	-8
CCOC(=O)c1c(NC(=O)c2cccc(OC)c2)sc(C(=O)Nc2ccccc2F)c1C	-5	-12
COc1ccc(C(=O)Nc2cc(OC)nc(OC)n2)cc1	1	-2
CCOC(=O)c1sc(N=CN(C)C)nc1C	9	16
CC(C)c1ccccc1OC1CC2CCC(C1)N2C(=O)c1ccc(CSc2cc(Cl)ccc2Cl)cc1 (stereo not given)	6	-12
O=C(Nc1cc(Cl)ccc1O)c1cnn2c(C(F)(F)F)cc(-c3ccccc3)nc12	-36	-39
Cc1nc2nc(S(=O)(=O)N3CCC(C)CC3)nn2c(C)c1C	6	3
Cc1ccc(NC(=S)Nc2ncccc2C)cc1	0	-5
CCOc1cc(CN2CCCC(N3CCCC3=O)C2)cc(Cl)c1O (stereo not given)	-1	-5
COc1cccc(-c2cc3c(n(CC4CC4)c2=O)CCN(Cc2c(F)cccc2Cl)C3)c1OC	21	7
CC1=NC2=C(C(=O)CC(C)(C)C2)C(c2cccc(I)c2)C1C#N (stereo not given)	11	7
c1ccc(COc2cncc(N3CCC(n4ccnc4)CC3)n2)cc1	3	1

# Shown with two lines to a compound: entries from further up
# Second line of a record: NPYLR7 agonist, NPYLR7 agonist max-min
Cc1ccsc1C(Cn1cnc(-c2ccccc2)c1-c1cnn(C)c1)N(C)C (stereo not given)
→ 4, 4
Cc1ccc(Cc2nc(N3CCCN(C(=O)c4ccc5c(c4)OCO5)CC3)c3c(C)nn(-c4ccc(F)cc4)c3n2)cc1
→ -4, -3

# Going on with the list:
Structure	NPYLR7 agonist	NPYLR7 agonist max-min
CC(C)(C)CC(=O)NCc1ccc(NC(N)=O)cc1	6	3
O=C1C2C3C=CC(C2C(=O)N1c1cccc(O)c1)C1C2C(=O)N(c4cccc(O)c4)C(=O)C2C31 (stereo not given)	5	2
CCc1ccc(OCC(=O)NNC(=O)C2CCCc3ccccc32)cc1 (stereo not given)	1	-2
CCN(Cc1nccn1C)C(=O)CC(=O)Nc1cc(C)cc(C)c1	0	-3
CC1CN(C(=O)CSc2cn(CC(=O)N(C(C)C)C(C)C)c3ccccc23)CC(C)O1 (stereo not given)	-5	-9
COc1cc(OC)c(OC)cc1/C=C1N=C(/C=C/c2cccc(Cl)c2Cl)OC\1=O	-13	-15
O=C(c1ccc(F)c(F)c1)N1CCC(c2nc3cc(Cl)ccc3s2)CC1	3	1
Clc1ccc(Nc2nnc3ccc(Cl)cn23)cc1	-1	-2
O=c1[nH]cc(N2CCCCC2)c(=O)[nH]1	0	-1
Nc1nnc(SCc2cccc(Cl)c2)s1	1	-2
CCCS(=O)(=O)Oc1ccc(C)cc1-c1nc2c(C)cccc2o1	-3	0
Cc1cc(C)c(C#N)c(SCc2ccccn2)n1	17	14
CCn1nc(C(=O)NCC2CCCCC2)cc1-c1ccco1	2	-3
CC(C)(C)c1nc2ccc(NC(=O)CC3(C(=O)O)CCCC3)cc2[nH]1	6	1
CCCC(=O)N1CCC1(C)C(=O)NS(=O)(=O)c1ccc(C#N)cc1 (stereo not given)	7	6
CC1=C(C(=O)OC2CCC(C)CC2)C(c2ccc(O)c([N+](=O)[O-])c2)NC(=O)N1 (stereo not given)	1	0
O=S(=O)(Oc1ccc(CNCc2ccco2)cc1)c1ccc(F)cc1	0	-4
c1cc(-c2n[nH]c(C3CC3)n2)cc(-n2cnnc2)c1	-2	8
O[C@@H]1C[C@H]2CN(Cc3cnc(NCc4ccccc4)nc3)C[C@H]2C[C@@H]1O	0	1
Cc1cc(NC2CCN(Cc3ccccc3)C2=O)nc(-c2ccncc2)n1 (stereo not given)	10	8
CC1Sc2ccc(C(=O)N(C)C(C)c3cccs3)cc2NC1=O (stereo not given)	0	-1
CC1=CC[C@@H]2CN(C(=O)c3coc4c3C(=O)CCC4)C[C@@H]2C1	0	-1
CN(Cc1ccc(F)cc1)C(=O)NC1CCN(c2ccccc2)C1=O (stereo not given)	8	3
Cc1ccc(C(=O)N2CCN(C3=NCC(C)S3)CC2)cc1F (stereo not given)	9	8
Cc1cccc2c1C(=O)N(CCc1ccccc1)C(c1cscn1)N2 (stereo not given)	14	14

# In a second layout: results already given.
structure: CCCS(=O)(=O)Oc1ccc(C)cc1-c1nc2c(C)cccc2o1
  NPYLR7 agonist: -3; NPYLR7 agonist max-min: 0

structure: Cc1cc(C)c(C#N)c(SCc2ccccn2)n1
  NPYLR7 agonist: 17; NPYLR7 agonist max-min: 14

structure: CCn1nc(C(=O)NCC2CCCCC2)cc1-c1ccco1
  NPYLR7 agonist: 2; NPYLR7 agonist max-min: -3

structure: CC(C)(C)c1nc2ccc(NC(=O)CC3(C(=O)O)CCCC3)cc2[nH]1
  NPYLR7 agonist: 6; NPYLR7 agonist max-min: 1

# Continued.
Structure	NPYLR7 agonist	NPYLR7 agonist max-min
N[C@@H](C(=O)N1CCn2nc(-c3nc4ccccc4[nH]3)cc2C1)c1ccccc1	1	1
CC(C)c1cc(N2CCN(c3ccccc3Cl)CC2)nc(SCc2ccc(C(=O)O)o2)n1	4	16
CCC1CCCCN1C(=O)c1ccc(N2CCNC2=O)cc1 (stereo not given)	7	6
C(=NOCc1ccc(CON=Cc2ccccc2)cc1)c1ccccc1	6	7
Cc1ccc(S(=O)(=O)NCC(=O)OCc2ccc(F)cc2Cl)cc1C	-1	-4
CCc1ncc(C(=O)NCc2cnn3ccccc23)cn1	8	3
Cc1ccc(NC(=O)C(C)OC(=O)C2CCCN2S(C)(=O)=O)cc1F (stereo not given)	8	3
CC1=NN(C(=O)c2ccc(OCc3ccc(C)cc3)cc2)C(O)(C(F)(F)F)C1 (stereo not given)	3	3
CCN(C(=O)C(C)OC(=O)CCNC(=O)CCC(=O)c1cccs1)C1CCS(=O)(=O)C1 (stereo not given)	0	6
CC1CCCC(NC(=O)c2ccc(S(=O)(=O)N(C)C)o2)C1 (stereo not given)	5	3
CCOC(=O)C1=C(C)NC(C)=C(C(=O)OCC)C1c1cc(-c2ccc(Cl)cc2)nn1-c1ccccc1	-12	-21
CN(Cc1ccsc1)Cc1nc2sc(-c3ccccc3)cc2c(=O)[nH]1	0	4
O=C(NC1CCCCC1)N1CCn2cccc2C1c1ccc(Cl)cc1 (stereo not given)	11	8
COc1ccccc1Nc1ncc(C(F)(F)F)cc1Cl	-33	-30
COc1ccc([C@H]2O[C@@H](c3ccc(OC)c(OC)c3)[C@H](C)[C@@H]2C)cc1OC	3	3
COc1ccc(NC(=O)N(Cc2nc(C(=O)NCCc3ccc(OC)c(OC)c3)cs2)C(C)C)cc1	20	16
CCc1[nH]nc(NC(=O)CN(C)C(C)C)c1C	20	12
COc1cccnc1C(=O)NCc1nc2cc(C)c(C)cc2[nH]1	4	-3
CC(NC(=O)c1coc(CN(CCN2CCOCC2)Cc2cccc(Cl)c2)n1)c1ccccc1 (stereo not given)	12	13
CC(C)Cc1noc(Cn2cc(I)cn2)n1	7	5
COc1ccc(CNC(=O)C2=C(Cl)CCCC2)cc1	9	4
C[C@H](c1ccc(Cl)cc1)n1c(CN)n[nH]c1=O	4	1
COc1cccc(C(C2Sc3nc(C)nn3C2=O)N2CCC3(CC2)OCCO3)c1 (stereo not given)	27	25
COc1ccc(N2C(=O)CSC2c2ccccc2NC(=O)c2ccccc2Cl)c(OC)c1 (stereo not given)	11	13
O=C1CC(NC(=O)N2CCCCC2CCO)CN1c1ccc2c(c1)OCCO2 (stereo not given)	3	-1
c1ccc(-n2nc3c(n2)-c2nonc2CC3)cc1	3	1
COc1ccc(Cn2cc(C(=O)N(C)Cc3nonc3C)nn2)cc1	8	8
C=C(C)Cn1c(=O)c2c(nc3n(-c4cc(Cl)ccc4C)c(C)cn23)n(C)c1=O	10	9
O=C(NCCCNC(=O)[C@H]1CCCN1C(=O)c1cc(Cl)cc(Cl)c1)c1ccccc1	11	17
CC(=O)c1cccc(OCC(=O)NCCN2C(=O)SC(=Cc3ccccc3)C2=O)c1	1	0
C=CCn1c(SCC(=O)N2CCCC2)nc2sc3c(c2c1=O)CCCC3	4	2
COCCS(=O)(=O)N(C)c1ccc(Br)cc1C	1	19
Cc1ccc(Oc2cc(F)nc(N)n2)c(C)c1	-5	-7
Cc1ccccc1Cn1cnc2c(cnn2CCNC(=O)c2ccc(F)c(F)c2)c1=O	-2	-9
Cc1ccc(C(=O)Nc2cc(-c3cccs3)nn2-c2nc(C)c(C)c(=O)[nH]2)cc1	-2	-5
COc1cc(-c2nnc(CSc3cccc[n+]3[O-])o2)cc(OC)c1OC	4	10
Cc1ccccc1C(c1ncccc1C)N(C)C(=O)C1CCN(CCOc2ccc(Cl)cc2)CC1 (stereo not given)	22	17
CCNc1cc(C)nc(N2CCN(C(=O)C(C)(C)C)CC2)n1	6	-1
Cc1noc(C)c1CC(=O)Nc1cnn(-c2ccccc2Cl)c1	4	3
CCOC(=O)C1(C/C=C/c2ccccc2)CCCN(C(=O)c2csnn2)C1 (stereo not given)	-4	-12
CCOC(=O)C(C(C)C)N1C(=O)C2C3CCC(C3)C2C1=O (stereo not given)	8	3
COCCCn1cc(C(=O)N2CCN(Cc3ccccn3)CC2)c2nn(-c3ccccc3)c(=O)c-2c1	-3	-7
Cc1ccc(S(=O)(=O)Nc2nc(C)cc(-n3nc(C)cc3C)n2)cc1	2	2
O=C1CCN(CC(O)COc2ccccc2)c2ccsc2CN1Cc1ccccc1 (stereo not given)	23	31
Cc1ccc2nc(N3CCC(C)CC3)c(C=C3SC(=S)N(C(C)C)C3=O)c(=O)n2c1	5	3
CC(=O)N(CN1C(=O)c2cccc([N+](=O)[O-])c2C1=O)c1cc(Cl)ccc1Cl	-12	-15
CCOC(=O)C1CCN(C(=O)c2cc(-c3ccccc3Cl)nn2-c2ccc(F)cc2)CC1	-3	2
O=C1c2ccc(Cl)c([N+](=O)[O-])c2C(=O)c2cccc([N+](=O)[O-])c21	3	0
CN(C)c1ccc(/C=C2/C(=N)N3N=C(c4ccco4)SC3=NC2=O)cc1Br	-1	-1
CC(C)N(C)S(=O)(=O)Nc1ccn(-c2ccccc2)n1	9&3	4&6

# (listing goes on)
Structure	NPYLR7 agonist	NPYLR7 agonist max-min
COc1ccc(CCNS(=O)(=O)c2cc(Cl)c(C)cc2OC)cc1OC	4	3
Cn1ccnc1CCC1CCCCN1C(=O)NCc1cccc(F)c1 (stereo not given)	20	13
Cc1cccc(-n2c(SCC#N)nc3cc(C(=O)O)ccc3c2=O)c1C	2	1
Cc1ccc(-c2cc(CO)no2)cc1	-6	-9
O=c1[nH]c(CN2CCN(c3cc(=O)n4ccccc4n3)CC2)nc2ccccc12	6	4
C=CCn1cc(CN2CCOC3(COCCN(C(=O)C(C)(C)C)C3)C2)cn1 (stereo not given)	-2	-4
Nc1nonc1-c1noc(-c2ccccc2F)n1	19	15
O=c1nc(SCc2cccnc2)c2c(n1CCCO)CCCC2	-4	-17
Cn1c(-c2ccccc2)nn(CCNC(=O)Cc2ccccc2)c1=O	4	2
Cc1nc2ccccc2nc1N1CCN(S(=O)(=O)Cc2ccccc2)CC1	26	22
COc1cc(-c2nnc(CSc3nnnn3C)o2)cc(OC)c1OC	1	2
CCn1ccc(C(=O)Nc2nnc(-c3cc(C)nn3C)o2)n1	-3	-3
NC(=O)c1ncn2c(C(=O)N3CCCC3c3ccc4c(c3)OCCO4)cc(-c3ccccc3)nc12 (stereo not given)	-1	6
O=C(NCc1ccccc1)c1cc(-c2ccccc2F)nc2cc(-c3ccccc3)nn12	8	9
CCN1CCN(c2c(CN(CCCOC)C(=O)c3ccccc3Br)c(C)nn2-c2ccccc2)CC1	3	7
Cc1cccc(Cl)c1NCC(=O)N(C)c1ccccc1	3	0
O=C(CCC1CCCCC1)NCCn1nc(-c2cccnc2)ccc1=O	0	-8
Cc1ccc(-n2nc(-c3ccco3)cc2C(=O)NC2CCN(Cc3ccccc3)CC2)c(C)c1	1	-2
O=C(COc1ccc(Cl)cc1)Nc1nnc(SCc2cccc(Cl)c2F)s1	9	14
